ClpP mod: qHTS Assay for Activators of ClpP; purified B. subtilis ClpP, FRET peptide cleavage, 20 min; Potency, µM (doses to about 57.5 µM), for inactives: at the highest dose activity change, negative = active; hit rate 1.9% among 340,000; AID 651965, 2013; active = well fitted falling curve with a large enough effect; inconclusive = small, poorly fitted or top-dose-only effect; inactive = no such curve, though single readings can be large or run the other way; further: potency means the concentration at half of the fitted maximal effect; the source files actives as falling curves though it sought activators and does not explain the sign; nearly all actives have a fitted effect of over 65% in size; many hits overshoot -100%
Target sequence (P80244 whole entry, looked up): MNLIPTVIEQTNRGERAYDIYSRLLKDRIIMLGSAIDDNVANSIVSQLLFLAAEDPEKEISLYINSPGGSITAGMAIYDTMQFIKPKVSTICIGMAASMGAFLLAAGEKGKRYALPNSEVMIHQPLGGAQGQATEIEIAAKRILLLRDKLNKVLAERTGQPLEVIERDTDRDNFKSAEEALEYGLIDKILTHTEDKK
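ClpP 10 microg/mL final, pH 8 Tris/KCl buffer with BSA, glycerol, Tween-20; compound pinned in; FRET-FV substrate; RT 20 min; Ex320/Em430; ΔFRET vs ADEP 5.8 microM, DMSO, no enzyme.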
gsp antag: antagonists of gsp mutant (McCune-Albright syndrome). gsp-mutant cells, cAMP HTRF, 30 min; control for the full effect not named in the record. Potency, µM (highest dose often 76.9 µM), for the others: at the highest dose activity change, negative = inhibition, actives largely listed as inhibitors. hit rate 0.4% among 340,000; active = falling curve of any shape with a large fitted effect; inconclusive = falling curve, mostly with a smaller effect; inactive = flat or rising curve; cell line not stated here;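 further: intracellular cAMP measured with PDE inhibitor Ro 20-1724 present during compound exposure; potency means the concentration at half of the fitted maximal effect; on the % scale 0 is the no-effect control and ±100 the full control effect; nearly all actives have a fitted effect of over 65% in size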
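Cells, 2000/well, grown 16–24 h in DMEM 10% FBS with 0.5 mg/ml G418, then compounds plus […] (300 uM addition stock), 30 min at 37C. cAMP read by HTRF (cAMP-d2 and anti-cAMP antibody-K in lysis buffer) after 30 min RT.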
Menin MLL FP FL: displaces fluorescein MLL peptide from human menin. Fluorescence polarization, fluorescein-MLL peptide displacement from menin. FP activity change, % at 61.4 µM. 290,000 tested, under 10 active. AID 1766; inconclusive = falling polarisation curve, or a change in total fluorescence; inactive = total fluorescence flat and polarisation flat or rising; no compound was filed as active; the % refers to the polarisation; negative = inhibition;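 further: % of control where 0% means no effect; inhibitors lower the polarisation; unlabelled MLL peptide was the positive control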
TRPV1 PAM: human TRPV1 potentiation; hit rate 0.02% among 320,000; potentiation, % at 8.33 µM; Q8NER1; TRPV1-expressing cells, Fluo-8 calcium influx, capsaicin EC20 potentiation; host cell line not named in the record; control for the full effect not named in the record; active means potentiation above 80%; inconclusive means 30% to 80%; inactive means below 30%; further: 0% is about no effect
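TRPV1-expressing cells were cultured overnight at 35.5C and loaded with Fluo-8 calcium dye for 40 to 90 min at room temperature. After a 10 s baseline, compound was added and calcium influx was read kinetically for 3 min (ex 480/em 520 nm).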
gsp agonist: gsp mutant agonism; gsp mutant cells, cAMP HTRF, 30 min; control for the full effect not named in the record; Potency, µM (highest dose often 76.9 µM), inactives show at the top dose activation (cAMP increase), hits mostly activators; hit rate 0.13% among 340,000; AID 624287; active = well fitted activation curve with a large enough effect; inconclusive = small, poorly fitted or top-dose-only effect, or another doubt; inactive = no such curve, though single readings can be large or run the other way; cell line not stated here;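 further: phosphodiesterase inhibitor Ro 20-1724 added with compounds to block cAMP breakdown; potency means the concentration at half of the fitted maximal effect; nearly all actives have a fitted effect of over 60% in size; about a fifth of the inactives were tested at one dose only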
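Cells stably selected in G418 were plated at 2000/well, grown 16-24 hr, then given compounds in DMSO with the PDE inhibitor […] (300 uM solution added) for 30 min at 37C; cAMP was read by HTRF.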
TRPML1 inh: inhibitors of human TRPML1 channel; Q9GZU1; TRPML1-inducible cells, Ca2+ dye fluorescence, FDSS; stronger effect = lower value; inhibition of EC80 agonist-evoked calcium signal; hit rate 0.02% among 390,000; activity change, negative = inhibition, % (concentration not given with the values); in the data active means activity change below about -50%; inconclusive means about -30% to -50%; inactive means above about -30%;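 further: stimulus is agonist 54-4 at its EC80 concentration; on the % scale 0 is the no-effect control and ±100 the full control effect; compound concentration not given in the record; the text of the record puts the active cut at -80%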
Target sequence (Q9GZU1 whole entry, looked up): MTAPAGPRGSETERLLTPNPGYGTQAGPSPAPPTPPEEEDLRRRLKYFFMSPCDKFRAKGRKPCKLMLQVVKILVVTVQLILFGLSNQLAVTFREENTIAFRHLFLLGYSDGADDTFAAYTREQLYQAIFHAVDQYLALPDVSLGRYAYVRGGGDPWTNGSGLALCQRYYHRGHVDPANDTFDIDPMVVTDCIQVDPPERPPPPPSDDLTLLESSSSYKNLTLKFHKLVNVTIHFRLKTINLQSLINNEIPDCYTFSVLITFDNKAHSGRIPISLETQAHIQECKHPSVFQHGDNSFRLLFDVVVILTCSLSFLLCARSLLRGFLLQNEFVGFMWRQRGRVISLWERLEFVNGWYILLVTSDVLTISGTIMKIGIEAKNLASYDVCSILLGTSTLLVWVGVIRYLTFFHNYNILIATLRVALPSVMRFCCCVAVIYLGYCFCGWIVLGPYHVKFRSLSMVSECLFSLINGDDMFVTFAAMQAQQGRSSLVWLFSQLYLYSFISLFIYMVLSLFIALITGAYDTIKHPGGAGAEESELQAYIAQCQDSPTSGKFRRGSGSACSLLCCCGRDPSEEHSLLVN
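TRPML1-DL cells, Tet-induced overnight (~16 h, 37 °C) at 1,500 cells/well, were loaded with Ca8 no-wash dye plus quencher for 45-90 min at room temperature. Compounds were pinned during FDSS kinetic reading; agonist 54-4 at EC80 (4 uM final) then added.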
Sfp PPTase inh: inhibitors of Bacillus subtilis Sfp phosphopantetheinyl transferase; Q9F4F7; Biochemical Sfp PPTase activity, qHTS; Potency, µM, for the others: max response, negative = inhibition, most hits filed as inhibitors; hit rate 3.5% among 310,000; AID 1490; active means well fitted inhibition curve with a large enough effect; inconclusive means small, poorly fitted or top-dose-only effect, or another doubt; inactive means no such curve, though single readings can be large or run the other way;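 further: the enzyme is Sfp with the accession as filed and its product quenches rhodamine fluorescence; potency means the concentration at half of the fitted maximal effect; 0% = enzyme reaction without inhibitor and -100% = no enzyme wells; top concentration of the series not given in the record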
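Compounds were incubated with enzyme (final 15 nM) for 15 min at room temperature before substrate addition started the reaction. Fluorescence at 525 nm excitation, 598 nm emission was recorded immediately and after 30 minutes.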
Starred values were filed as active, the others as inactive; ? = inconclusive; / = not tested or not shown; & = joins results of further samples; [ ] = remark or other dose.

compound	ClpP mod	gsp antag	Menin MLL FP FL	TRPV1 PAM	gsp agonist	TRPML1 inh	Sfp PPTase inh
Cn1c(COc2ccc(Cl)cc2Cl)nnc1SCC(=O)NCC1CCCO1 (configuration not stated)	2.0%	-14%	/	15	10%[15.4 µM]	14	-8%
CN(CC(=O)Nc1c(Cl)cccc1Cl)C(=O)CNC(=O)c1ccc2c(c1)OCO2	-6.2%	-6%	/	-2	-1%	-11	/
Cc1ccc(CCNC(=O)C2CCC(=O)N2CCc2ccccc2)cc1 (configuration not stated)	/	3%	4.4	6	7%	1	13%
Cc1cccc(N2C(=O)CC(c3ccc(F)cc3)C3=C2COC3=O)c1 (configuration not stated)	0.2%	1%	-4.0	-3	-38%[inhibitor]	-1&13	18%
CCCN1C(=O)c2ccccc2NC1c1cc(OC)c(OC)c(OC)c1 (configuration not stated)	18µM*	-2%	2.2	1	-46%[inhibitor]	2	2%
COC(=O)c1c(S(=O)(=O)N2CCOCC2)c(C)n(C)c1C	-1.6%	8%	/	0	0%	10	11%
C[C@H](CO)N1C[C@H](C)[C@@H](CN(C)C(=O)Nc2ccccc2)Oc2ccc(NC(=O)C3CCCCC3)cc2C1=O	0.9%	11%	/	/	/	-13	/
CC(C)CCNc1nc(N2CCCC2)c2c(c1C#N)CCN(C)C2	?	18%	?	-6	18%	18	71µM*
COc1ccc(NC(=O)CCC(=O)N2CCN(S(=O)(=O)c3ccc(C)cc3)CC2)c(OC)c1	-11%	-1%	/	2	14%	16	/
COc1cccc(/C=N/NC(=O)CCNc2n[nH]c(=O)[nH]c2=O)c1OC	/	9%	1.6	0	14%	28	20%
O=C(Nc1ccc(N2CCOCC2)c(Cl)c1)c1ccc(S(=O)(=O)N2CCOCC2)cc1	0.8%	-13%	-2.7	?	15%[15.4 µM]	9	11%
CCCCCCCC(=O)NNC(=O)CCC(=O)O	-3.5%	-9%	0.7	-6	-12%	24	8%
Cc1cccc(OC(C)C(=O)NCc2ccc(S(N)(=O)=O)cc2)c1 (configuration not stated)	3.2µM*	9%	9.6	4	-3%	0	19%
COc1cc(OC)cc(C(=O)NCC(=O)OCC(=O)NCc2ccco2)c1	-4.8%	-9%	/	/	-24%	-13	/
O=C(NCc1ccccn1)C(=O)Nc1nc(C23CC4CC(CC(C4)C2)C3)cs1	0.4%	-23%	-0.7	-5	-73%[inhibitor]	/	3%
COc1ccc(S(=O)(=O)Nc2noc3ccccc23)cc1	1.3%	-3%	3.3	?	2%	4	5%
O=C(c1cc2ccccc2oc1=O)N(Cc1ccco1)Cc1cccs1	-7.5%	-6%	-0.1	-2	3%	7	-6%
CC(C)OCC1CO1 (configuration not stated)	0.5%	2%	/	6	/	12	/
COc1ccc(S(=O)(=O)N2CCNCC2)cc1OC	/	-14%	7.2	13	?	-6	-6%
CC(C)Cc1nnc(NC(=O)c2ccc([N+](=O)[O-])cc2)s1	1.2%	-7%	-2.1	22	20%	1	7%
COc1ccc(S(=O)(=O)O/N=C2\CCSc3ccc(C)cc32)cc1	-3.9%	?	5.2	14	8%	9	-6%
C=C(C)Cn1c(Sc2nnc(C)s2)nc2c1c(=O)[nH]c(=O)n2C	1.5%	-1%	2.6	/	25%	1	12%
O=C(NCc1nnc(SCC(=O)N2CCCCC2)o1)c1c(F)cccc1F	-4.0%	-6%	6.0	7	-45%[inhibitor]	-9	-1%
CCOc1c(Br)cc(Br)cc1/C=C1\SC(N)=NC1=O	0.6%	-5%	7.5	10	-11%	-5	-12%
CCOC(=O)Cn1c(=O)oc2cc(S(=O)(=O)Nc3cccc(C)c3)ccc21	-0.5%	1%	-1.6	13	?	-2	22%
CCOc1ccc(N=C(NN)c2ccc3ccccc3n2)cc1	/	-2%	4.6	-15	-15%[15.4 µM]	-11	14µM*
CS(=O)(=O)N(CC(=O)N1CCCC1)c1ccc(Cl)c(Cl)c1	-3.2%	2%	2.2	0	-31%[inhibitor]	-8	8%
Nc1ncnc2c1ncn2[C@@H]1O[C@H](CNS(=O)(=O)c2cc3ccccc3s2)[C@@H](O)[C@H]1O	1.5%	4%	/	/	/	23	/
CC(NC(=O)c1ccccc1F)c1nnc(SCC(=O)Nc2nccs2)n1C (configuration not stated)	/	-4%	-4.3	?	?	4	-4%
COc1cc(C(=O)OCC(=O)c2cc(C)n(CC3CCCO3)c2C)cc(OC)c1C (configuration not stated)	0.3%	?	/	-3	0%	-1	/
CCNC(=S)N1CCc2ccccc2C1	/	-20%	-0.5	2	-23%[15.4 µM]	-11	-1%
COc1ccc(C)cc1N(C(=O)c1ccc(C#N)cc1)C1=NC(C)(C)CS1	0.7%	?	-1.6	-11	?	3	-5%
CCOCCCNC(=O)C(NC(=O)Cc1cccs1)c1ccccc1 (configuration not stated)	?	0%	1.3	3	0%[15.4 µM]	12	26%
CC1(C)CC(=O)C2=C(C1)OC(N)=C(C#N)C2c1ccsc1 (configuration not stated)	0.4%	27%	0.0	5	0%	0	-3%
NS(=O)(=O)c1ccc(NC(=O)COC(=O)c2cc3ccccc3oc2=O)cc1	?	-5%	1.0	-2	17%	-8	-4%
O=C(NC1CCCCCC1)C1CCN(S(=O)(=O)N2CCC3(CC2)OCCO3)CC1	-0.5%	-5%	-0.8	12	0%	-5	15%
COc1cc(NC(=O)c2cc(OC)c(OC)c(OC)c2)ccc1NC(=O)c1cccs1	2.1%	-25%	/	4	-5%[15.4 µM]	-9	1%
CC12CC3CC(C)(C1)CC(C(=O)NCc1cccnc1)(C3)C2	-0.7%	-2%	-1.1	-3	-5%[15.4 µM]	2	9%
COc1cccc(/C=N/NC(=O)C(=O)NCc2cccnc2)c1O	?	0%	6.2	0	3%	-12	23%
CC(=O)c1ccc(N2CCCC2)c(F)c1	/	/	2.1	-7	/	/	17%
COc1ccc(Nc2cc(Nc3cccc(OC)c3)ncn2)cc1	-3.2%	-5%	1.9	6	-2%[15.4 µM]	-16	-5%
CC1CCN(c2nc(-c3ccccc3O)nc3ccccc23)CC1	0.2%	0%	0.0	-10	-5%	-4	10%
CCCOC1CCCN(C(=O)c2ccc(OC3CCN(C(=O)COC)CC3)cc2)C1 (configuration not stated)	-4.2%	5%	/	-4	-11%[15.4 µM]	11	-1%
O=C(Nc1ccc(NC(=S)NC(=O)c2ccccc2F)cc1)c1cccs1	/	?	1.0	3	-1%[15.4 µM]	-4	16%
CCOC(=O)c1c(C)[nH]c(C(=O)NCc2ccccc2OC)c1C	/	/	9.5	8	/	/	-16%
CCOC(=O)Nc1ccc2c(c1)nc1n2CCN(CCOC)C1	/	8%	1.6	-11	?	4	3%
CC1(C)O[C@@H]2[C@H](O1)[C@@H](CO)O[C@H]2n1cc(Br)c(=O)[nH]c1=O	-0.7%	-7%	/	/	-14%	-2	/
O=S(=O)(c1ccc(NC(=S)NCCC(c2ccccc2)c2ccccc2)cc1)N1CCOCC1	-2.9%	-13%	5.3	3	2%	12	18%
COc1cc(OC)cc(C(=O)OC/C(O)=C(\C#N)c2nc3ccccc3[nH]2)c1	-3.5%	-10%	?	1	2%	-3	21%
CCOC(=O)c1sc(=S)n(C)c1NC(=O)c1ccccc1	-1.3%	0%	3.1	4	-2%	-3	14µM*
C[C@H](CO)N1C[C@H](C)[C@@H](CN(C)Cc2ccc(Oc3ccccc3)cc2)OCc2cnnn2CCCC1=O	1.7%	/	/	/	8%	-11	/
Cc1ccc(CN(C)C(=O)c2cccc(S(=O)(=O)N3CCN(c4ccccc4)CC3)c2)cc1	2.8%	-18%	/	/	12%	7	/
CCCCC(=O)N1CCN(c2nc3ccc(F)cc3s2)CC1	0.9%	-23%	/	-5	-17%	5	3%
COc1ccc2nc(-c3ccccc3)cc(C(=O)OCC(=O)N3CCCCC3)c2c1	4.4%	-18%	/	-11	14%	64	/
COc1ccccc1C1SCCN1C(=O)c1ccc([N+](=O)[O-])cc1 (configuration not stated)	-0.1%	-2%	3.5	2	-45%[inhibitor]	5	2%
Cc1cc(C)c2c(=O)n(CC(=O)Nc3cccc(F)c3)sc2n1	-28%	-1%	-0.5	-15	-3%	/	3.2µM*
COc1ccccc1NC(=O)N1CCCC1C(=O)Nc1ccc2c(c1)OCO2 (configuration not stated)	-1.4%	3%	0.8	-2	-23%	1	-3%
Nc1cc(=O)[nH]c(SCC(=O)Nc2ncc(C(F)(F)F)cc2Cl)n1	/	8%	3.7	9	2%[15.4 µM]	0	-19%
O=C(CC1OC(=O)c2ccccc21)NNC(=O)c1ccc(F)cc1 (configuration not stated)	0.1%	9%	/	-10	9%	1	/
O=[N+]([O-])c1ccc(/C=N/Nc2nc(N3CCOCC3)nc(N3CCOCC3)n2)cc1	/	/	?	0	/	/	11%

Continuation.
compound	ClpP mod	gsp antag	Menin MLL FP FL	TRPV1 PAM	gsp agonist	TRPML1 inh	Sfp PPTase inh
O=C(NCc1ccc(F)cc1)c1ccc(Cl)c(NC2=NC3CS(=O)(=O)CC3S2)c1 (configuration not stated)	-0.2%	9%	0.0	2	6%	-2	3%
C=CCNC(=O)c1cc(-c2cccnc2)nc2ccccc12	/	-7%	-1.5	9	4%	10	3%
C=CCC1(CC=C)CCCN1C(=O)c1cc(COc2cccc(OC)c2)on1	-0.6%	?	/	-3	26%	36	13%
Cn1c(N)c(C(=O)COC(=O)Cc2ccc(F)cc2)c(=O)n(C)c1=O	/	6%	/	22	67%[15.4 µM]	-9	/
CC(Sc1nncn1C)C(=O)NCc1ccc2c(c1)OCO2 (configuration not stated)	/	8%	-3.0	-3	-11%[15.4 µM]	12	5%
O=C(Cn1c(COc2ccccc2)nc2ccccc21)Nc1cc(Cl)ccc1Cl	-1.7%	5%	8.8	-1	-16%	37	-8%
